Compound activity from PubChem.
SARS PLP yeast = blocks SARS-CoV papain-like protease in a yeast assay. S. cerevisiae expressing SARS-CoV PLpro, growth rescue; control for the full effect not named in the record. Potency, µM (series often up to 32.9 µM), inactives show at the highest dose activity, positive = growth rescue. actives 0.19% (n = 330,000); active means well fitted rising curve with a large enough effect; inconclusive means small, poorly fitted or top-dose-only effect; inactive means no such curve, though single readings can be large or run the other way; further: 0% is about no effect; nearly all actives have a fitted effect of over 55% in size; growth read by luminescence after 48 h
2A StopGo = FMDV 2A StopGo reporter, luciferase signal; actives 1.2% (n = 410,000); AID 1159524; Potency, µM (titrated, usually from 57.9 µM), inactives show at the top dose signal change, negative = less light; human cells with a luciferase reporter of 2A StopGo recoding; control for the full effect not named in the record; active = well fitted falling curve with a large enough effect; inconclusive = small, poorly fitted or top-dose-only effect; inactive = no such curve, though single readings can be large or run the other way; tested in HEK293T cells; further: on the % scale 0 is the no-effect control and ±100 the full control effect; nearly all actives have a fitted effect of over 45% in size; luciferase light after 4 h
Cruzain inh noDet = cruzain (T. cruzi) inhibition without detergent | Potency, µM, for inactives: max response, negative = inhibition, usual class: inhibitors | purified cruzain, Z-FR-AMC fluorescence, no detergent | P25779 | actives 2.3% (n = 200,000) | AID 1476;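 further: plate controls were enzyme without inhibitor for no effect and buffer without enzyme for full effect; nearly all actives have a fitted effect of over 40% in size; top concentration of the series not given in the record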
Target sequence (P25779 123-467 limits assumed): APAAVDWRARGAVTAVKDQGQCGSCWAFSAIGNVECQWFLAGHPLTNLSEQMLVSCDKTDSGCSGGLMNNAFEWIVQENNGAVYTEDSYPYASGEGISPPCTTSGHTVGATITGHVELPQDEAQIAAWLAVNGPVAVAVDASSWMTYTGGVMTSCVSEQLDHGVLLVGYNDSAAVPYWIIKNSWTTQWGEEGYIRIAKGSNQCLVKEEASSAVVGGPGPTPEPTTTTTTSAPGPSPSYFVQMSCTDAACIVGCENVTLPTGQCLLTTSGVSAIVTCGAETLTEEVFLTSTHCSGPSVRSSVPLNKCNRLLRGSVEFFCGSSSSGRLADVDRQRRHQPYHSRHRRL
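Purified cruzain at 1.5 nM, pre-incubated 15 min with compound at room temperature in 100 mM sodium acetate pH 5.5, 5 mM DTT, 0.00005% Triton X-100. Reaction started with 2 uM Z-FR-AMC; AMC fluorescence increase over 60 s gives rate.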
Cruzain inh Det = inhibitors of Trypanosoma cruzi cruzain with detergent. purified cruzain, Z-FR-AMC fluorescence, 0.01% Triton. Potency, µM, for the others: max response, negative = inhibition, usual class: inhibitors. actives 0.43% (n = 200,000);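 further: plate controls were neutral wells for no effect and buffer without enzyme for full effect; nearly all actives have a fitted effect of over 40% in size; top concentration of the series not given in the record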
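Purified cruzain (1.5 nM final) was preincubated with compounds for 15 min at room temperature in 100 mM sodium acetate pH 5.5, 5 mM DTT, 0.01% Triton X-100. Reaction started with 2 uM Z-FR-AMC; AMC fluorescence change over 60 s gave activity.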
Lassa entry inh = inhibitors of Lassa virus binding or cell entry | Lassa virus pseudotype entry inhibition, cell reporter; control for the full effect not named in the record | Potency, µM (titrated, usually from 37.9 µM), inactives show top-dose activity change, negative = inhibition, actives largely listed as inhibitors | actives 1.2% (n = 300,000); active means well fitted inhibition curve with a large enough effect; inconclusive means small, poorly fitted or top-dose-only effect, or effect the other way; inactive means flat fitted curve, though single readings scatter; tested in HEK293 cells; further: on the % scale 0 is the no-effect control and ±100 the full control effect; nearly all actives have a fitted effect of over 50% in size; luciferase read-out
RE007 growth inh = less growth of the S. pombe RE007 Vpr strain; actives 0.21% (n = 360,000); Potency, µM (top dose mostly 92.2 µM), for the others: at the highest dose activity change, negative = less growth; AID 651644; S. pombe RE007 Vpr strain, BacTiter-Glo ATP luminescence, 24 h; control for the full effect not named in the record; active = well fitted falling curve with a large enough effect; inconclusive = small, poorly fitted or top-dose-only effect; inactive = no such curve, though single readings can be large or run the other way;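 further: on the % scale 0 is the no-effect control and ±100 the full control effect; nearly all actives have a fitted effect of over 50% in size; the assay follows cell death caused by Vpr and the record does not say whether a fall means rescue or toxicity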
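Fission yeast RE007 carrying one integrated HIV-1 vpr copy, seeded at OD 0.01 in PMG+AL medium with 23 nL pinned compound. Grown 24 h at 30 degrees; viability read by BacTiter-Glo luminescence after 5 min.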
MARV entry inh = inhibitors of Marburg virus binding or cell entry; Marburg virus pseudotyped entry inhibition, cell reporter; control for the full effect not named in the record; about a third of the inactives were read at about 46 µM; Potency, µM (series often up to 37.8 µM), for the others: top-dose activity change, negative = inhibition, most hits filed as inhibitors; actives 1.8% (n = 300,000); active = well fitted inhibition curve with a large enough effect; inconclusive = small, poorly fitted or top-dose-only effect, or effect the other way; inactive = flat fitted curve, though single readings scatter; tested in HEK293 cells; about a fifth of its hits are not listed in these tables; further: on the % scale 0 is the no-effect control and ±100 the full control effect; luciferase read-out
NS1 function inh = influenza NS1 inhibition; AID 2326; S. cerevisiae slowed by influenza A NS1, growth recovery by OD600; Potency, µM (titrated, usually from 46.1 µM), inactives show top-dose activity, positive = more growth; actives 0.4% (n = 270,000); active means well fitted rising curve with a large enough effect; inconclusive means small, poorly fitted or top-dose-only effect; inactive means no such curve, though single readings can be large or run the other way; further: nearly all actives have a fitted effect of over 50% in size
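Growth recovery, yeast-based: influenza A NS1 expressed in S. cerevisiae causes slow growth, and suppressors are detected by OD600. The parent strain without NS1 is used as positive control.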
Starred values were filed as active, the others as inactive; ? = inconclusive; . = not tested or not shown; & = joins results of further samples; [ ] = remark or other dose. Unless noted, the call rests on the fitted dose curve; in most records, active means well fitted curve in the direction sought with a large enough effect; inconclusive means small, poorly fitted or top-dose-only effect, or another doubt; inactive means no such curve, though single readings can be large; an effect the other way counts as inactive or inconclusive. Potency means the concentration at half of the fitted maximal effect.

SMILES	SARS PLP yeast	2A StopGo	Cruzain inh noDet	Cruzain inh Det	Lassa entry inh	RE007 growth inh	MARV entry inh	NS1 function inh
COc1ccc(Br)cc1CN1CCN(C(=O)c2cccc(OC)c2OC)CC1	1%	.	-4%	1.7%	-13%	6%	-16%	-1%
COc1ccc(OCC(O)CN2CCCCCC2)cc1 (stereo not given)	-6%	6%	-3%	0.6%	12%[14.3 µM]	-4%	7%	2%
CCOC(=O)C(=O)N=Nc1c(O)[nH]c2ccccc12	-1%	-11%	-12%	-4.8%	-2%	2%	0%	9%
CCCC(=O)N(C1CC(C)C(C#N)(C#N)C1(C#N)C#N)N(C)C (stereo not given)	-2%	16µM*	.	.	?	-3%	?	9%
Cc1ccccc1NC(=O)Cc1nc(CSc2nnc(C3CCCCC3)n2N)cs1	3%	4%	-14%	1.2%	-16%	5%	-5%	4%
O=C1COc2ccc(C(=O)COC(=O)c3cccnc3Cl)cc2N1	-2%	-2%	.	.	19%	-9%	7%[14.2 µM]	.
CCOc1c(N2CC(C)OC(C)C2)c(=O)c1=O (stereo not given)	-1%	-11%	.	.	-1%	-7%	11%[46.1 µM]	6%
COc1cc(/C=C/C(=O)c2ccc(NS(=O)(=O)c3ccc(C)cc3)cc2)cc(OC)c1O	-5%	-18%	?	-6.0%	?	0%	?	?
CCCCOc1ccc(-c2nnc(-c3ccco3)o2)cc1	-31%	16%	23%	-5.7%	-16%	-3%	?	-8%
CCN(CC)S(=O)(=O)c1cccc(-c2nc3n(n2)Cc2ccccc2-3)c1	2%	-11%	?	3.0%	0%	-1%	-18%	-19%
COc1ccc(NC(=O)CSc2nc(-c3ccncc3)nn2CC(=O)N2CCCC2)cc1	2%	11%	-16%	3.9%	4%	-2%	?	2%
O=C(NCc1ccccc1Cl)C(=O)NCC(c1ccco1)N1CCOCC1 (stereo not given)	-3%	32%[activator]	.	.	19%	6%	-2%[46.1 µM]	.
O=C(NCC1CCCN(Cc2ccc3c(c2)OCCO3)C1)c1ccc2c(c1)OCO2 (stereo not given)	?	-4%	.	.	-11%[46.1 µM]	8%	-3%[46.1 µM]	6%
COc1cc(C(=O)N(C)CC2CCN(CCc3cccc(C(F)(F)F)c3)CC2)ccc1C	-2%	-24%	.	.	?	-7%	?	2%
COc1ccc(S(=O)(=O)N2CCN(c3cnccn3)CC2)cc1OC	4%	13%	.	.	0%[46.1 µM]	126%	?	.
Cc1cccc(NS(=O)(=O)c2ccc(C)c(C(N)=O)c2)c1	-1%	5%	.	.	-15%	7%	12%[46.1 µM]	1%
CCN(CC)C(=O)CSc1nnc(COc2ccc(OC)cc2)n1N	0%	-2%	.	.	-5%	3%	2%[46.1 µM]	2%
O=C(c1ccc2nc[nH]c2c1)N1CCN(S(=O)(=O)c2cccc(F)c2)CC1	-7%	?	.	.	4%	-2%	-7%	.
O=S(=O)(Cc1ccccc1)N1CCn2c(nc3ccccc32)C1	3%	-8%	-20%	2.1%	.	0%	.	?
Cc1cccc(NC(=O)Cc2ccc(Br)cc2)n1	-7%	28%	.	.	9%[46.1 µM]	0%	14%[46.1 µM]	-28%
COc1cccc(-c2c3c([nH]c(=O)c2C#N)CCc2cc(OC)ccc2-3)c1	-2%	-23%	.	.	5%	-8%	-13%	-2%
O=S(=O)(c1ccc(-c2ccccc2)cc1)N1CCCC1	-2%	-23%	.	.	.	4%	.	-7%
Cc1ccccc1Nc1cc(C(=O)NC2CCCCC2)c2ccccc2n1	.	7%	0%	-0.4%	-4%[46.1 µM]	.	2%[46.1 µM]	.
c1ccc2c(CCc3ccncc3)cccc2c1	.	-10%	.	.	?	10%	?	.
CCOC(=O)C(=Cc1cc(=O)c(OC)co1)C(=O)OCC	-48%	8.9µM*	-6%	-1.6%	?	-11%	?	-38%

6 of the compounds above, comma-delimited.
Structure,SARS PLP yeast,2A StopGo,Cruzain inh noDet,Cruzain inh Det,Lassa entry inh,RE007 growth inh,MARV entry inh,NS1 function inh
CCOc1c(N2CC(C)OC(C)C2)c(=O)c1=O (stereo not given),-1%,-11%,.,.,-1%,-7%,11%[46.1 µM],6%
COc1cc(/C=C/C(=O)c2ccc(NS(=O)(=O)c3ccc(C)cc3)cc2)cc(OC)c1O,-5%,-18%,?,-6.0%,?,0%,?,?
CCCCOc1ccc(-c2nnc(-c3ccco3)o2)cc1,-31%,16%,23%,-5.7%,-16%,-3%,?,-8%
CCN(CC)S(=O)(=O)c1cccc(-c2nc3n(n2)Cc2ccccc2-3)c1,2%,-11%,?,3.0%,0%,-1%,-18%,-19%
COc1ccc(NC(=O)CSc2nc(-c3ccncc3)nn2CC(=O)N2CCCC2)cc1,2%,11%,-16%,3.9%,4%,-2%,?,2%
O=C(NCc1ccccc1Cl)C(=O)NCC(c1ccco1)N1CCOCC1 (stereo not given),-3%,32%[activator],.,.,19%,6%,-2%[46.1 µM],.

(cont.)
SMILES	SARS PLP yeast	2A StopGo	Cruzain inh noDet	Cruzain inh Det	Lassa entry inh	RE007 growth inh	MARV entry inh	NS1 function inh
O=C(Nc1ncc2c(n1)-c1ccccc1CC2)c1ccc(F)cc1	-12%	17%	-3%	0.6%	1%	24%	-23%	-12%
CCOC(=O)c1cc(-c2ccccc2)n(-c2cccc(C(=O)N(CC)c3ccccc3)c2)c1C	.	-2%	-10%	-0.3%	?	.	.	.
NC(=O)C1CCCN(C(=O)c2ccc3oc(Cc4ccc(Cl)cc4)nc3c2)C1 (stereo not given)	3%	-5%	.	.	.	9%	.	11%
CCC1(C)Cc2c(sc3c2c2ncnn2c2nnc(SCC(=O)NCc4ccco4)n32)CO1 (stereo not given)	8%	-24%	-3%	-0.8%	?	6%	-30%&-30%	-10%
CCOC(=O)c1nnn(CC(=O)Nc2cc(Cl)ccc2C)c1C(=O)OCC	-1%[6.58 µM]	-4%	15%	0.3%	2%	7%	17%	0%
CSc1nc(N2CCN(c3ccccc3Cl)CC2)c2ccccc2n1	-4%	?	.	.	3%	21%	?	-6%
CC(=O)c1cccc(NC(=O)c2sc(-n3nc(C)c(Cc4ccccc4)c3C)nc2C)c1	.	?	-10%	-3.5%	6%[46.1 µM]	.	-20%[46.1 µM]	.
CCC(=O)N/C=C/n1cnc2cc(C(F)(F)F)ccc21	0%	-12%	5%	-0.6%	-13%	12%	-13%	-11%
O=C(O)c1ccccc1C(=O)NCC(O)c1ccccc1 (stereo not given)	0%	23%	.	.	-2%[46.1 µM]	4%	?	2%
CCC(=O)N1CCc2cc(Br)cc(S(=O)(=O)N3CCC(C(=O)N(CC)CC)CC3)c21	.	12%	-1%	-0.7%	1%[46.1 µM]	.	1%[46.1 µM]	.
COc1ccc(C(=O)NC(=S)N2CCOCC2)cc1[N+](=O)[O-]	1%	-10%	.	.	2%[46.1 µM]	9%	9%[46.1 µM]	6%
C=CCn1c(O)c(C(CC)=Nc2ccc(C(=O)O)cc2)c(=O)[nH]c1=O	-1%	-14%	.	.	12%	-2%	14%[46.1 µM]	-2%
COc1ccc(NC2=C(NCCO)C(=O)c3ccccc3C2=O)cc1	-12%	0%	-12%	-12%	?	-30%	?	-2%
Cc1ccc(CNC(=O)CSc2nc(=O)n(Cc3ccco3)c3c2CCC3)cc1	.	13%	-10%	-4.0%	-2%[46.1 µM]	.	.	.
COc1cccc(Nc2nc(N)c([N+](=O)[O-])c(NCc3ccccc3)n2)c1	-1%	?	.	.	.	30%	.	6%
CN(C)S(=O)(=O)N1CCN(C(=O)N2CCCCCC2)CC1	4%	-13%	0%	4.1%	-17%	1%	3%	4%
COc1cc(C2N3CC4(C)CN2CC(C)(C3)C4)ccc1O (stereo not given)	-1%	-16%	1%	2.3%	-1%	-5%	-1%	-12%
CC1(C)CC(=O)C=C(NCCc2ccccc2)C1	14%	-13%	.	.	13%[46.1 µM]	8%	13%[46.1 µM]	-10%
Cc1cc(C)c(CN2CCC(CO)(CCOc3ccccc3)CC2)cc1C	1%	-26%	.	.	?	-5%	11µM*	0%
COc1cccc(/C=C(\C)C(=O)c2c(C)cc(C)[nH]c2=O)c1OC	-1%	2%	.	.	.	16%	.	1%
COc1ccc(Br)cc1/C=N/n1c(-c2ccccc2)n[nH]c1=S	1%	-18%	.	.	.	12%	.	-19%
Cc1cccc(NC(=O)[C@@H](NC(=O)N2C[C@H]3C[C@@H](C2)c2cccc(=O)n2C3)C(C)C)c1	5%	-18%	.	.	.	6%	.	22%
CN1C(=O)[C@H]2[C@@H](/C=C/c3ccccc3)N3C(=O)CN(Cc4ccccc4)C(=O)[C@@]3(C)[C@H]2C1=O	-6%	-12%	.	.	.	9%	.	-8%
O=c1nc(/C=C/c2ccccc2C(F)(F)F)cc(C(F)(F)F)[nH]1	2%	-18%	.	.	.	1%	.	10%
COc1ccc(S(=O)(=O)N2CCCCCC2)cc1C(=O)OCC(=O)NCC(C)C	-7%	-19%	3%	-1.3%	1%	-5%	-11%	-4%
SMILES	SARS PLP yeast	2A StopGo	Cruzain inh noDet	Cruzain inh Det	Lassa entry inh	RE007 growth inh	MARV entry inh	NS1 function inh
Cc1c(NC(=S)N2CCN(c3cccc(Cl)c3)CC2)c(=O)n(-c2ccccc2)n1C	1%	-16%	.	.	-11%[46.1 µM]	1%	?	-1%
CN(CC(=O)Nc1ccc(S(=O)(=O)N2CCCC2)cc1)Cc1ccc(Cl)cc1Cl	-24%	0%	1%	-2.9%	?	3%	?	-31%
O=C(c1ccc2nc(-c3ccco3)c(-c3ccco3)nc2c1)N1CCN(c2ccccc2)CC1	-11%	?	-2%	?	-22%	7%	16µM*	8%
CCOC(=O)c1[nH]cnc1C(=O)Nc1ccc([N+](=O)[O-])cc1	-1%	-22%	.	.	-4%[46.1 µM]	7%	9%[46.1 µM]	-2%
O=C(CSc1nc2c(sc3ccccc32)c(=O)n1CCCN1CCCC1)NCC1CCCO1 (stereo not given)	10%	0%	-22%	?	8%	4%[3.69 µM]	?	9%
Cc1cc(C)n2c(SCC(=O)N3CCN(S(=O)(=O)c4ccc(Cl)cc4)CC3)nnc2n1	8%	6%	5%	4.8%	-11%	7%	14%[46.1 µM]	10µM*
